gsp antag: antagonizes gsp, the McCune-Albright syndrome mutation | gsp-mutant cells, cAMP HTRF, 30 min; control for the full effect not named in the record | Potency, µM (series often up to 76.9 µM), for the others: at the highest dose activity change, negative = inhibition, hits mostly inhibitors | actives 0.4% (n = 340,000); active = falling curve of any shape with a large fitted effect; inconclusive = falling curve, mostly with a smaller effect; inactive = flat or rising curve; cell line not stated here;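 note: intracellular cAMP measured with PDE inhibitor Ro 20-1724 present during compound exposure; potency is the fitted concentration of half-maximal effect; % is set by controls: 0 for no effect and ±100 for the full control effect; nearly all actives have a fitted effect of over 65% in size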
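Measurement of cellular cAMP by homogeneous time-resolved fluorescence following a 30 min compound exposure at 37C. The PDE inhibitor […] was present throughout; the assay buffer was DPBS with 0.05% BSA and 0.005% Tween 20.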
Sfp PPTase inh: inhibitors of Bacillus subtilis Sfp phosphopantetheinyl transferase; Biochemical Sfp PPTase activity, qHTS; Potency, µM, without a hit: max response, negative = inhibition, usual class: inhibitors; actives 3.5% (n = 310,000); active = well fitted inhibition curve with a large enough effect; inconclusive = small, poorly fitted or top-dose-only effect, or another doubt; inactive = no such curve, though single readings can be large or run the other way;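 note: the enzyme is Sfp with the accession as filed and its product quenches rhodamine fluorescence; potency is the fitted concentration of half-maximal effect; 0% = enzyme reaction without inhibitor and -100% = no enzyme wells; top concentration of the series not given in the record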
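Fluorescence-quenching assay: 15 nM Sfp-PPTase preincubated 15 min at room temperature with compound, then 5 uM rhodamine-CoA and 12.5 uM BHQ-2-labelled YbbR peptide added. Fluorescence (ex 525/em 598 nm) read at start and after 30 min; difference gives rate.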
gsp agonist: agonists of gsp mutant (McCune-Albright syndrome); gsp mutant cells, cAMP HTRF, 30 min; control for the full effect not named in the record; Potency, µM (highest dose often 76.9 µM), for inactives: top-dose activation (cAMP increase), actives largely listed as activators; actives 0.13% (n = 340,000); active = well fitted activation curve with a large enough effect; inconclusive = small, poorly fitted or top-dose-only effect, or another doubt; inactive = no such curve, though single readings can be large or run the other way; cell line not stated here;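 note: phosphodiesterase inhibitor Ro 20-1724 added with compounds to block cAMP breakdown; potency is the fitted concentration of half-maximal effect; nearly all actives have a fitted effect of over 60% in size; about a fifth of the inactives were tested at one dose only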
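Cells in DMEM/10% FBS with G418 were pretreated with compounds in DMSO plus […] (300 uM stock) for 30 min at 37C. cAMP was measured by HTRF (cAMP-d2 plus anti-cAMP antibody-K) after 30 min at room temperature.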
TRPV1 PAM: human TRPV1 potentiation; TRPV1-expressing cells, Fluo-8 calcium influx, capsaicin EC20 potentiation; host cell line not named in the record; control for the full effect not named in the record; potentiation, % at 8.33 µM; actives 0.02% (n = 320,000); AID 540277; active means potentiation above 80%; inconclusive means 30% to 80%; inactive means below 30%; note: 0% is about no effect
Target sequence (Q8NER1 whole entry, looked up): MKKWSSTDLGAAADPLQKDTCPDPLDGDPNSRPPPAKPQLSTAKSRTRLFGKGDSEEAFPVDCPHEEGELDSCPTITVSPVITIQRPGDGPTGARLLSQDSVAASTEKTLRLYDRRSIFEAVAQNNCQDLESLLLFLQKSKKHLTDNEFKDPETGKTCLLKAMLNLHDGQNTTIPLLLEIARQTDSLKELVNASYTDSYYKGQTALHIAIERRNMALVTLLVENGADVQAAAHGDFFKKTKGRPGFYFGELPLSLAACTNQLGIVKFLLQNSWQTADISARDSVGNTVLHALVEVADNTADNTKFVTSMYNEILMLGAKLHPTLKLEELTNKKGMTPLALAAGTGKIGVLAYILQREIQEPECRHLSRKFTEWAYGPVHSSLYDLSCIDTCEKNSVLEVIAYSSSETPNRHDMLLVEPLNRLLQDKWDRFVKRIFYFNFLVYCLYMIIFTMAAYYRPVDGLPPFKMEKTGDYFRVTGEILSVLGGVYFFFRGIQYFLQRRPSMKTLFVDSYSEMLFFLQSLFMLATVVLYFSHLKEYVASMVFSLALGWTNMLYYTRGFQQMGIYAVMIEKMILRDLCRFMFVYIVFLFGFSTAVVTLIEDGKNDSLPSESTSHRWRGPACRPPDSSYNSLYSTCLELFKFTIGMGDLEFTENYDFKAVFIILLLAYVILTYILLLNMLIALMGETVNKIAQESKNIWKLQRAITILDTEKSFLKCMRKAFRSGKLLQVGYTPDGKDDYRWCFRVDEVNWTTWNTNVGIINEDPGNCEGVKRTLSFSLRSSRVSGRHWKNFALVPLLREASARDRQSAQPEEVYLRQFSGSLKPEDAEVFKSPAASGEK
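Cells expressing TRPV1 were dye-loaded with Fluo-8 and read kinetically: 10 s baseline, 3 min after compound (agonist portion), then 2 min after EC20 capsaicin (allosteric enhancer portion). Calcium-bound dye fluorescence at 480/520 nm.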
D2 PAM: human D2 receptor positive allosteric modulation | DiscoveRx D2 beta-arrestin cells, luminescence, 90 min; 100% = 57 uM dopamine signal | potentiation, % (no concentration beside the values) | actives 0.23% (n = 360,000) | AID 624464; active = potentiation of 50% or more; inconclusive = 30% to 50%; inactive = 30% or less;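 note: compound concentration not given in the record; tested on top of an EC20 dose of dopamine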
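D2 cells co-treated with compound plus 50 nM dopamine (EC20) for 90 min at 37 deg C to detect potentiation. Beta-arrestin recruitment was read as enzyme-fragment luminescence after 1 h at ambient temperature. Full response was set by 57 uM dopamine.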
ClpP mod: qHTS Assay for Activators of ClpP; AID 651965, 2013; purified B. subtilis ClpP, FRET peptide cleavage, 20 min; actives 1.9% (n = 340,000); ATP-dependent Clp protease proteolytic subunit (Bacillus subtilis (strain 168)), P80244; Potency, µM (highest dose often 57.5 µM), inactives show at the highest dose activity change, negative = active; active = well fitted falling curve with a large enough effect; inconclusive = small, poorly fitted or top-dose-only effect; inactive = no such curve, though single readings can be large or run the other way; note: potency is the fitted concentration of half-maximal effect; the source files actives as falling curves though it sought activators and does not explain the sign; nearly all actives have a fitted effect of over 65% in size; many hits overshoot -100%
Target sequence (P80244 whole entry, looked up): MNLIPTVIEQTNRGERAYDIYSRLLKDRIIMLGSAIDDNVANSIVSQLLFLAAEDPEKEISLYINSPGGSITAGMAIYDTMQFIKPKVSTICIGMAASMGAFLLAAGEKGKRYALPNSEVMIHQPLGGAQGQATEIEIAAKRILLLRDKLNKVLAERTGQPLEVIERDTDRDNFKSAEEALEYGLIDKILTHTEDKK
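Buffer: 100 mM Tris/HCl pH8, 100 mM KCl, 0.05% low protease BSA, 2.5% glycerol, 0.01% Tween-20. ClpP 10 microg/mL final; 20 min RT; delta FRET normalized to ADEP and DMSO controls.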
Menin MLL FP FL: menin-MLL binding inhibition, fluorescein peptide | Fluorescence polarization, fluorescein-MLL peptide displacement from menin | FP activity change, % at 61.4 µM | 290,000 tested, under 10 active; inconclusive = falling polarisation curve, or a change in total fluorescence; inactive = total fluorescence flat and polarisation flat or rising; no compound was filed as active; the % refers to the polarisation; negative = inhibition;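 note: % of control where 0% means no effect; inhibitors lower the polarisation; unlabelled MLL peptide was the positive control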
Starred values were filed as active, the others as inactive; ? = inconclusive; . = not tested or not shown; & = joins results of further samples; [ ] = remark or other dose. No enrichment for hits; about 5.1% have a hit in one of these screens.

SMILES | gsp antag | Sfp PPTase inh | gsp agonist | TRPV1 PAM | D2 PAM | ClpP mod | Menin MLL FP FL
COc1ccc(OCc2cc(C(=O)NC(C)c3csc(C)n3)no2)c(Cl)c1 (stereo unspecified) | -3% | 7% | 11% | -12 | -1 | -1.9% | -1.5
COc1ccccc1NS(=O)(=O)c1ccc2[nH]c(=S)oc2c1 | -6% | . | -6%[15.4 µM] | . | -16 | -1.7% | .
O=C(CC1C(=O)NCCN1Cc1cccc(F)c1F)NC1CCCCCC1 (stereo unspecified) | 15% | 14% | -23% | 5 | -18 | -3.7% | .
CC1CCc2sc(C(=O)OCC(=O)NC(N)=O)cc2C1 (stereo unspecified) | 8% | 14% | 2%[15.4 µM] | -12 | -4 | . | 3.6
Cc1cc(C(=O)Nc2cccc(S(=O)(=O)N3CCCCC3)c2)c2ccccc2n1 | -20% | 5% | 14%[15.4 µM] | 16 | -6 | -0.7% | 1.1
COC(=O)C[C@H]1C[C@H]2c3cc(NC(=O)C4CCOCC4)ccc3O[C@H]2[C@@H](CO)O1 | . | . | ? | . | -2 | 0.6% | .
CCN(CC(=O)Nc1ccc2c(c1)OCO2)S(=O)(=O)c1ccccc1 | 2% | 1% | 3% | -5 | -5 | . | -1.1
O=C(NCc1ccccn1)c1ccc([N+](=O)[O-])cc1 | 10% | 21% | 13% | -3 | -3 | . | 3.3
CCCNC(=O)C(Cc1ccccc1)NC(=O)c1ccccn1 (stereo unspecified) | 10% | . | 20% | 13 | -7 | -0.9% | .
O=c1c2ccccc2nnn1CSc1ccc2ccccc2n1 | 22% | 4% | -7% | 10 | 13 | -3.0% | -2.2
CC(=O)Nc1cc(F)c2c(c1F)Cc1cc(F)ccc1-2 | -2% | . | ? | . | -6 | . | .
Cc1cc(NC(=O)C(C)SCC(=O)N(C)CC(=O)Nc2ccccc2Br)no1 (stereo unspecified) | -1% | . | -10% | 8 | -35 | 1.5% | .

Looked up above.
Sfp PPTase inh result of O=c1c2ccccc2nnn1CSc1ccc2ccccc2n1 → 4%
gsp antag result of Cc1cc(C(=O)Nc2cccc(S(=O)(=O)N3CCCCC3)c2)c2ccccc2n1 → -20%

Next records follow:
SMILES | gsp antag | Sfp PPTase inh | gsp agonist | TRPV1 PAM | D2 PAM | ClpP mod | Menin MLL FP FL
C=CCC(COCc1ccccc1)NS(=O)(=O)c1ccccc1Br (stereo unspecified) | -6% | -3%&-5% | -28% | -18 | -2 | -1.2% | -5.7&2.8
O=C(CC1NC(=S)NC1=O)c1ccc(Cl)cc1 (stereo unspecified) | 4% | 16% | 10%[15.4 µM] | -3 | -4 | . | 0.8
CCCC(=O)Nc1cc(OCC)c(NC(=O)NC2CCCCC2)cc1OCC | 2% | 3% | -4% | -11 | 1 | 0.3% | -1.0
Cc1cc(C(F)F)nn1CC(=O)NCc1ccco1 | 1% | 1% | -19% | 11 | -7 | -5.9% | 5.2
CCCS(=O)(=O)c1ncc(Cl)c(C(=O)Nc2ccc(S(=O)(=O)Nc3ncccn3)cc2)n1 | -7% | -20% | ? | -4 | -4 | 1.2% | -0.7
Cc1n[nH]c(=O)n(N=Cc2cccs2)c1=O | . | . | -8% | . | -3 | 0.6% | .
COc1ccc2nc(SCC(=O)N(C)C3CCCCC3)c(C#N)cc2c1 | -28% | -15% | -13% | -1 | -4 | ? | -1.3
O=C(COC(=O)c1cccc(Cl)c1)Nc1cccc(S(=O)(=O)NC2=NCCC2)c1 | -9% | . | 21% | . | -2 | -0.3% | .
CCc1cc(=O)oc2c(C)c(O)c(CN3CCCCC3)cc12 | -10% | 13% | ? | -8 | -14 | 57% | 0.7
O=C1OC2(c3ccccc3)C3CCCC2C13 | -2% | 18% | 5% | -26 | 2 | 0.4% | 4.6
COc1cc(-c2nc3ccccc3s2)ccc1O | 13% | -10% | 18% | 23 | -4 | 8.9µM* | 0.5
COc1cc(C(=O)C(=O)c2cc(OC)c(O)c(OC)c2)cc(OC)c1O | -1% | -14% | -17% | -16 | -4 | . | -8.8
O=C(Oc1cccc(C(=S)N2CCOCC2)c1)c1cccc(Cl)c1 | -2% | 3% | 2% | -1 | -1 | -1.5% | .
CCOC(=O)N1CCN(C(=O)c2ccc(CN(c3ccccc3)S(C)(=O)=O)cc2)CC1 | 2% | 12% | -49% | 3 | 3 | -1.8% | 4.0
CC1(C)CCC[C@]2(C)C(CS(=O)c3ccccc3)=C(C=O)CC[C@@H]12 (stereo partly specified) | -17% | . | -5% | . | -5 | . | .
Cn1c(C(C)(O)C(O)c2ccccc2)nc2ccccc21 (stereo unspecified) | . | -2% | . | 4 | . | . | 4.9
Cc1cccn2c(=O)c(/C=N/O)c(Nc3ccccc3F)nc12 | 3% | 0% | 9% | 23 | -2 | . | 2.0
Cc1cc(C(=O)CSc2nnnn2C)c(C)n1-c1ccc2c(c1)OCCO2 | -14% | 45µM* | 17% | -4 | 1 | 1.0% | -0.5
COc1c(/C=N/NS(=O)(=O)c2ccc(C)cc2)c(CCN(C)C(C)=O)cc2c1OCO2 | -21% | 14% | 27% | 4 | -8 | -0.6% | 3.2
CCCC(=O)NC(=S)Nc1cccc(C(C)=O)c1 | 3% | -8% | -18% | -2 | -16 | 1.6% | 5.8
CC(C)C(NC(=O)c1ccc([N+](=O)[O-])cc1Cl)C(=O)N1CCCC1 (stereo unspecified) | 3% | 9% | -29% | ? | 1 | . | -3.4
CCOC(=O)C(C#N)C(c1cccnc1)c1c(C)[nH][nH]c1=O (stereo unspecified) | 15% | -12% | 13% | -4 | -9 | 0.3% | 0.2
CCOC(=O)N1CCN(c2c(-c3ccc(C)c(C)c3)c(=O)c2=O)CC1 | ? | 10% | 4% | -17 | 0 | 0.6% | 2.2
CC(=O)N1c2ccc(S(=O)(=O)N3CCCC3C(=O)Nc3cccc(F)c3)cc2CC1C (stereo unspecified) | 2% | -4% | -7% | 6 | -1 | 2.1% | -1.5
Cc1ccc(-n2c(=O)c3cc4c(=O)n(-c5ccc(C)c(C)c5)c(=O)c4c(C(=O)c4ccc(C(=O)O)cc4)c3c2=O)cc1C | -21% | -22% | 10% | 10 | -3 | 0.8% | ?
COc1ccc(CNC(=O)C(OC(=O)c2ccco2)c2ccc(F)cc2)cc1 (stereo unspecified) | 3% | 9% | -1%[15.4 µM] | 4 | -1 | . | -8.4
CCN(CC(=O)Nc1ccc(OC)cc1)C(=O)c1cc(-c2cccs2)nn1-c1ccccc1 | -19% | . | 33% | 6 | 8 | -3.0% | .
COc1ccc(C)cc1NC(=O)CN1C(=O)COc2ccc(S(=O)(=O)N3CCOCC3)cc21 | 6% | 16% | -2% | -8 | -10 | 0.0%&1.0% | -1.1
Cc1cccc(NC(=O)CSc2nnc(C)c(=O)n2N)c1C | -2% | -11% | 28% | -7 | -5 | -2.8% | 0.1
CCc1nc(N)c(C#N)c(-c2ccncc2)c1C | 7% | 6% | -1% | 2 | -8 | ? | 0.4
Cc1ccc(OCC(=O)N/N=C2\CCOc3c(C)cccc32)cc1 | -3% | -10% | -21% | 3 | -15 | 0.3% | 7.2
CCC(=O)N1CCc2cc(S(=O)(=O)CCC(=O)NCc3ccc(C)cc3)ccc21 | 7% | 12% | 14% | 2 | -10 | -0.7%&-1.0% | 4.9
COc1ccc(C)cc1N(C)C(=O)Cc1c(C(=O)O)n(C)c2ccccc12 | -7% | 13% | 13%[15.4 µM] | -4 | -7 | -2.1% | 6.4
Cn1c(=O)c2[nH]c(-c3cccnc3)nc2n(C)c1=O | 2% | 3% | -3% | 12 | -7 | -12% | 3.2
Cc1cc(C)c(C#N)c(N2CCN(Cc3ccc4c(c3)OCO4)CC2)n1 | -9% | 2% | ? | -11 | -37 | -3.4% | -14
CCOc1ccc(OCCCC(=O)N(CC)CC(=O)Nc2c(F)cccc2F)cc1 | -3% | . | 4% | 8 | -6 | -2.5% | .
COc1ccc(OC)c(NC(=O)N2CCCC(CNS(=O)(=O)c3cccs3)C2)c1 (stereo unspecified) | 4% | -2% | 13%[15.4 µM] | -8 | 1 | -2.6% | 4.9
COCC(=O)N1CCN(c2ccc([N+](=O)[O-])cc2)CC1 | -12% | 10% | -29% | -23 | -18 | -3.3% | -0.5
O=C(COc1ccccc1Cl)N1CCN(C(=O)c2ccco2)CC1 | 2% | 14% | -8% | -14 | 19 | -2.2% | .
O=C(NC1CCCC1)C1CCN(S(=O)(=O)c2ccccc2)CC1 | 6% | 5% | ? | 10 | 3 | . | 1.1
CCSc1nc(N2CCOCC2)c2c(c1C#N)CC(C)(C)N(C)C2 | 10% | 13% | ? | 2 | -7 | ? | -6.0
CCCC(=O)NCCc1cc2cc(C)c(C)cc2[nH]c1=O | 6% | 2% | 10% | 15 | -7 | 25µM* | -0.9
Cc1[nH]c2ccccc2c1C(=O)C(=O)N(C)C1CCCCC1 | 3% | 6% | -9% | -14 | -10 | -2.5% | -5.8
O=C(N/N=C/c1ccccn1)c1c[nH]c2ccccc12 | 0% | -8% | 4%[15.4 µM] | 9 | -5 | -1.5% | -0.4
CCN(C(=O)COC(=O)CNS(=O)(=O)c1ccccc1)c1ccccc1 | . | 8% | 0%[15.4 µM] | 1 | -15 | . | -2.8
COc1ccccc1N1CCN(C(=O)c2c(-c3c(F)cccc3Cl)noc2C)CC1 | -24% | 4% | 17% | -6 | 20 | 0.1% | -4.2
CC(C)(C)c1ccc(C(=O)OCC(=O)NC2CC2)cc1 | -1% | . | 19%[15.4 µM] | -19 | -21 | . | .
CC1CN(C(=O)COC(=O)c2ccc(C#N)cc2)CC(C)O1 (stereo unspecified) | 7% | 14% | -37%[inhibitor] | 14 | -7 | -1.0% | -2.0
COc1cccc(CNc2nc3nc(C)cc(C)n3n2)c1 | 30% | 22% | 0% | -5 | -3 | 20µM* | 1.8
O=C(CCC1CC(=O)Nc2ccccc21)NCc1ccccc1 (stereo unspecified) | 8% | 2% | 8% | -5 | 4 | -1.7% | -1.5

High-throughput results from PubChem.
